# MITF inh – blocks MITF activity | inhibition, % (test concentration not listed) | 37,000 tested, 0.28% active | TRPM1 promoter luciferase, luminescence, 24 h;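 active = most replicates at 85% or more, or half of them and the mean; inconclusive = half reach 85% but not the mean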;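 note: human melanocyte line stably carrying TRPM1 promoter luciferase reporter; 0% = vehicle wells and 100% = a positive control; the first replicate is given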
# Hedgehog inh – Sonic Hedgehog pathway inhibition; Shh-LIGHT2 Gli-luciferase reporter, 30 h; inhibition, % (concentration not given with the values); 22,000 tested, 2.1% active;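 active = replicate mean of 65% or more; inconclusive = mean lower but half the replicates past it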;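 note: pathway switched on by Shh-conditioned medium diluted 1 in 25 in low serum; 100 nL library stock added to about 40 µL; 0% = median of neutral wells and 100% = positive control level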
# PD-1 reversal – activators reversing PD-1 mediated T-cell inhibition; primary human CD4 T cells, PD-L1 beads, CellTiter-Glo 96 h; 29,000 tested, under 10 active; activation, % (test concentration not listed);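 active = replicate mean of 50% or more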;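 note: 0% = median vehicle wells and 100% = positive control; 100 nL library stock added to about 50 µL; numbers are from one replicate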
# YB-1 expression – YB-1 expression inhibition; U2OS, qRT-PCR YB-1 vs CDIP delta delta Cp, 16 h; active compounds read high; zero = DMSO, each unit about twofold; 30,000 tested, 0.37% active; delta delta Cp (YB-1 minus CDIP) (test concentration not listed);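 active = delta delta Cp rounded down to an integer at or above 3, about 3 SD of DMSO wells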;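 note: higher means less YB-1 transcript or more CDIP transcript relative to DMSO; stock transfer was 100 nL into about 100 µL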
# * = called active by the depositor; ? = inconclusive; nt = no result given.
SMILES,MITF inh,Hedgehog inh,PD-1 reversal,YB-1 expression
Cc1c(-c2ccccc2)oc2c(C(=O)OCCN3CCCCC3)cccc2c1=O,5,-38,nt,0.03
C[C@H](CO)N1C[C@H](C)[C@H](CN(C)S(=O)(=O)c2ccc(Cl)cc2)Oc2ccc(NS(=O)(=O)c3ccc(F)cc3)cc2CC1=O,7,26,-0.7,0.18
C[C@@H]1CN([C@H](C)CO)C(=O)Cc2cc(NS(=O)(=O)c3cn(C)cn3)ccc2O[C@H]1CN(C)Cc1ccc(Oc2ccccc2)cc1,-19,16,0.8,-0.2
COc1ccc(S(=O)(=O)Nc2ccc3c(c2)C(=O)N([C@H](C)CO)C[C@H](C)[C@@H](CN(C)S(=O)(=O)c2ccc(OC)cc2)OCCCC[C@@H](C)O3)cc1,-1,-7,nt,-0.076
C[C@@H]1CN([C@H](C)CO)C(=O)c2cc(NS(=O)(=O)c3ccc(F)cc3)ccc2O[C@H]1CN(C)Cc1ccc(C(=O)O)cc1,-1,-39,-0.2,-0.15
COc1ccc(OC)c(NC(=O)COc2cc(C)c(Br)c(C)c2)c1,-3,nt,-0.4,nt
C[C@@H]1CN([C@@H](C)CO)C(=O)c2cccc(NS(=O)(=O)c3cccs3)c2O[C@@H]1CN(C)C(=O)Nc1ccccc1,-6,-5,nt,-0.31
C[C@H](CO)N1C[C@H](C)[C@H](CN(C)Cc2ccc(Oc3ccccc3)cc2)Oc2c(NC(=O)C3CCOCC3)cccc2C1=O,2,-4,nt,0.53
COc1ccc(OC)c(S(=O)(=O)N(C)CC(=O)Nc2ccc(F)c(Cl)c2)c1,-10,nt,3.5,nt
C=C1CC[C@@H]2C(C)(C)C[C@@H](O)C[C@@]2(C)[C@@H]1CC/C(=C/C(=O)OC)COC(C)=O,-11,-3,-0.9,1.2
C[C@@H]1CN([C@@H](C)CO)C(=O)c2cc(NS(=O)(=O)c3cn(C)cn3)ccc2O[C@H]1CN(C)Cc1ccc(Oc2ccccc2)cc1,3,-18,0.6,0.67
C[C@@H]1CN([C@@H](C)CO)C(=O)c2cccc(NS(=O)(=O)c3ccccc3)c2O[C@@H]1CN(C)S(=O)(=O)c1ccc(F)cc1,-5,-13,-2.8,-0.21
CC(Oc1ccccc1-c1ccccc1)c1n[nH]c(=S)n1-c1ccccc1 (stereo unspecified),11,69*,0.1,0.14
C[C@@H]1CN([C@H](C)CO)C(=O)Cc2cc(NC(=O)Nc3cccc4ccccc34)ccc2O[C@H]1CN(C)C(=O)NC1CCCCC1,-8,-28,nt,-0.33
C[C@H]1CN([C@@H](C)CO)C(=O)Cc2cc(NC(=O)Nc3ccccc3)ccc2O[C@@H]1CN(C)C(=O)Nc1ccccc1,2,nt,0.3,-0.5
C[C@H](CO)N1C[C@H](C)[C@@H](CN(C)Cc2ccc(C(F)(F)F)cc2)Oc2c(NS(=O)(=O)c3ccc(Cl)cc3)cccc2C1=O,17,31,-1.3,0.66
C[C@@H]1CN([C@H](C)CO)C(=O)c2cc(N(C)C)ccc2O[C@@H]1CN(C)C,3,-18,2.0,0.49
CS(=O)(=O)N(CC(=O)Nc1cccc(Cl)c1Cl)c1ccc(F)c(Cl)c1,3,nt,1.6,nt
C[C@@H]1CN([C@@H](C)CO)C(=O)c2cccc(NC(=O)C3CCOCC3)c2O[C@@H]1CN(C)Cc1ccc(Cl)c(Cl)c1,-7,27,-0.6,0.15
C[C@H]1CN([C@@H](C)CO)C(=O)c2cccc(NC(=O)c3ccc(-c4nccs4)cc3)c2O[C@H]1CN(C)CC1CC1,-9,37,0.0,-0.68
COc1ccc(CN(C)C[C@H]2Oc3ccc(NC(=O)C4CC4)cc3C(=O)N([C@@H](C)CO)C[C@H]2C)cc1,10,9,1.2,0.51
Cc1ccc(S(=O)(=O)Nc2ccc3c(c2)CC(=O)N([C@@H](C)CO)C[C@H](C)[C@@H](CN(C)C(=O)Nc2ccccc2)O3)cc1,-8,-15,-0.8,-0.6
CCCN1CC=C2C(C#N)(C#N)C(N)=C(C#N)C(c3ccc(OCC(N)=O)cc3)C2(C)C1 (stereo unspecified),15,-5,0.9,-0.51
COc1ccc(S(=O)(=O)NCc2ccccn2)c(Cl)c1Cl,-11,nt,1.7,nt

# Laid out differently: 9 of the compounds above.
# Below each compound: MITF inh	Hedgehog inh	PD-1 reversal	YB-1 expression
- C[C@H]1CN([C@@H](C)CO)C(=O)Cc2cc(NC(=O)Nc3ccccc3)ccc2O[C@@H]1CN(C)C(=O)Nc1ccccc1
    2	nt	0.3	-0.5
- C[C@H](CO)N1C[C@H](C)[C@@H](CN(C)Cc2ccc(C(F)(F)F)cc2)Oc2c(NS(=O)(=O)c3ccc(Cl)cc3)cccc2C1=O
    17	31	-1.3	0.66
- C[C@@H]1CN([C@H](C)CO)C(=O)c2cc(N(C)C)ccc2O[C@@H]1CN(C)C
    3	-18	2.0	0.49
- CS(=O)(=O)N(CC(=O)Nc1cccc(Cl)c1Cl)c1ccc(F)c(Cl)c1
    3	nt	1.6	nt
- C[C@@H]1CN([C@@H](C)CO)C(=O)c2cccc(NC(=O)C3CCOCC3)c2O[C@@H]1CN(C)Cc1ccc(Cl)c(Cl)c1
    -7	27	-0.6	0.15
- C[C@H]1CN([C@@H](C)CO)C(=O)c2cccc(NC(=O)c3ccc(-c4nccs4)cc3)c2O[C@H]1CN(C)CC1CC1
    -9	37	0.0	-0.68
- COc1ccc(CN(C)C[C@H]2Oc3ccc(NC(=O)C4CC4)cc3C(=O)N([C@@H](C)CO)C[C@H]2C)cc1
    10	9	1.2	0.51
- Cc1ccc(S(=O)(=O)Nc2ccc3c(c2)CC(=O)N([C@@H](C)CO)C[C@H](C)[C@@H](CN(C)C(=O)Nc2ccccc2)O3)cc1
    -8	-15	-0.8	-0.6
- CCCN1CC=C2C(C#N)(C#N)C(N)=C(C#N)C(c3ccc(OCC(N)=O)cc3)C2(C)C1 (stereo unspecified)
    15	-5	0.9	-0.51

# Carrying on.
SMILES,MITF inh,Hedgehog inh,PD-1 reversal,YB-1 expression
C[C@H]1CN([C@@H](C)CO)C(=O)Cc2cc(NS(=O)(=O)c3ccccc3)ccc2O[C@H]1CN(C)S(C)(=O)=O,-2,26,nt,-0.024
COc1ccc(S(=O)(=O)Nc2ccc3c(c2)CC(=O)N([C@@H](C)CO)C[C@@H](C)[C@@H](CN(C)Cc2ccc(Cl)c(Cl)c2)O3)cc1,9,38,nt,-0.14
COC(=O)c1ccccc1NC(=O)CC(O)(C(F)(F)F)C(F)(F)F,8,nt,-0.8,nt
Cc1noc(C)c1NC(=O)Nc1ccc2c(c1)C(=O)N([C@H](C)CO)C[C@H](C)[C@H](CN(C)C)O2,-27,nt,nt,0.31
CCn1c(SCC(=O)Nc2cccc(SC)c2)nnc1-c1ccccc1Cl,19,nt,-0.9,nt
CCSc1nnc(-c2ccccc2NC(=O)CC)c(=O)[nH]1,-14,-6,0.0,0.64
COc1ccc(NC(=O)C(=O)NCC(=O)Nc2cccc(C(F)(F)F)c2)cc1,14,nt,1.7,nt
C[C@@H]1CN([C@H](C)CO)C(=O)c2cc(NC(=O)Cn3cnnn3)ccc2O[C@@H]1CN(C)S(C)(=O)=O,3,-29,0.5,-0.13
COc1ccc(NC(=O)N(C)C[C@@H]2Oc3c(NS(=O)(=O)c4c(C)noc4C)cccc3C(=O)N([C@@H](C)CO)C[C@@H]2C)cc1,3,32,nt,-0.22
C[C@@H]1CCCCO[C@H](CN(C)Cc2ccccc2)[C@@H](C)CN([C@H](C)CO)C(=O)c2cc(NC(=O)c3ccncc3)ccc2O1,4,-11,nt,-0.63
COc1ccc(NC(=O)N(C)C[C@@H]2Oc3c(NC(=O)c4cc(C)nn4C)cccc3C(=O)N([C@H](C)CO)C[C@H]2C)cc1,3,-13,2.2,0.3
O=C(COc1ccccc1[N+](=O)[O-])Nc1ccc2nn(-c3ccc(F)cc3)nc2c1,-19,nt,-1.3,nt
COc1ccc(C(=O)N(Cc2nc(-c3ccc(C)cc3)no2)C(C)C)cc1,-9,nt,2.6,nt
COC(=O)c1ccc(NC(=O)CSc2nnc(-c3cnccn3)n2C)cc1,-6,nt,-0.3,nt
Cc1ccc(NC(=O)c2ccc3c(=O)n(Cc4ccco4)c(=S)[nH]c3c2)cc1Cl,-7,42,-0.7,-0.2
C[C@H]1CN([C@@H](C)CO)C(=O)c2cccc(NC(=O)C3CCCCC3)c2O[C@@H]1CN(C)C(=O)Nc1cccc2ccccc12,0,-5,nt,0.015
C[C@H]1CN([C@@H](C)CO)C(=O)c2cc(NS(=O)(=O)c3ccc(Cl)cc3)ccc2O[C@@H]1CN(C)C(=O)Nc1ccc(F)cc1,-4,26,-1.3,0.19
O=C(NCCCCCCNC(=O)ON=C1CCCCC1)ON=C1CCCCC1,7,-21,-3.9,-0.31
C[C@@H]1CN([C@H](C)CO)C(=O)c2cccc(NC(=O)NC3CCCCC3)c2O[C@H]1CN(C)S(=O)(=O)c1ccc(F)cc1,14,4,-0.4,-0.39
C[C@@H]1CN([C@@H](C)CO)C(=O)c2cc(NC(=O)Nc3ccc(C(F)(F)F)cc3)ccc2O[C@H]1CN(C)C(=O)Nc1ccc(F)cc1,8,21,nt,-0.012
CNC[C@H]1Oc2c(N)cccc2C(=O)N([C@H](C)CO)C[C@@H]1C,6,-4,-0.1,0.48
C[C@H](CO)N1C[C@H](C)[C@H](CN(C)C(=O)Nc2ccc3c(c2)OCO3)Oc2ccc(NS(C)(=O)=O)cc2CC1=O,-1,-12,1.7,0.12
Cn1c(=O)n(C)c2cc(CNCc3cccnc3)ccc21,-14,nt,1.8,nt
COc1ccc(S(=O)(=O)N(C)C[C@@H]2Oc3c(NC(=O)C4CCCCC4)cccc3C(=O)N([C@H](C)CO)C[C@@H]2C)cc1,-5,-3,2.3,0.24
CCN(CC(=O)Nc1ccc(C)c(Cl)c1)S(=O)(=O)c1ccc(Cl)cc1,-4,nt,1.1,nt
c1ccc2c(c1)OCC(c1nnc3sc(-c4ccncc4)nn13)O2 (stereo unspecified),-48,nt,-2.5,nt
CCOc1ccc(NC(=O)CSc2nc(-c3cccs3)cc(C(F)(F)F)c2C#N)cc1,-13,nt,3.4,nt
O=[N+]([O-])c1ccc(NCCNc2nc3ccccc3nc2N2CCOCC2)cc1,10,nt,-4.3,nt
Cc1noc(C)c1NC(=O)N(C)C[C@H]1Oc2ccc(NS(=O)(=O)c3cn(C)cn3)cc2C(=O)N([C@@H](C)CO)C[C@@H]1C,-2,nt,-0.4,-0.38
C[C@@H]1CN([C@@H](C)CO)C(=O)c2cccc(NS(=O)(=O)c3ccc(Cl)cc3)c2O[C@@H]1CN(C)S(C)(=O)=O,-13,-5,2.7,-0.27
C[C@H]1CN([C@@H](C)CO)C(=O)c2cc(NC(=O)Nc3ccccc3)ccc2O[C@H]1CN(C)S(=O)(=O)c1ccccc1,-29,-11,1.8,0.43
CC(=O)O[C@H]1C[C@@]2(C)[C@@H](CC[C@H]3[C@@]4(C)C=CC(=O)[C@@H](C)[C@@H]4[C@H](OC(C)=O)C(=O)[C@@]32C)/C1=C(\CCC=C(C)C)C(=O)O,?,47,-1.6,0.42
Cc1ccc(N=C2SC3(CC3)C(=O)N2c2ccc(C)cc2)cc1,-2,21,-0.6,0.094
COc1ccc(S(=O)(=O)Nc2cccc3c2O[C@H](CN(C)S(=O)(=O)c2ccc(Cl)cc2)[C@@H](C)CN([C@@H](C)CO)C3=O)cc1,-24,21,1.9,0.12
c1coc(-c2nnc(C3CCCCC3)o2)c1,-14,-22,0.7,0.097
COc1ccc(S(=O)(=O)N(C)C[C@@H]2Oc3ccc(NC(=O)C4CCCCC4)cc3CC(=O)N([C@H](C)CO)C[C@@H]2C)cc1,5,21,0.7,0.073
COc1ccc(Cn2c(C)cc(O)cc2=O)cc1OC,-8,4,0.5,0.22
C[C@@H]1CCCCO[C@@H](CN(C)S(C)(=O)=O)[C@@H](C)CN([C@H](C)CO)C(=O)c2cc(NC(=O)CCC(F)(F)F)ccc2O1,-15,-19,-3.6,-0.36
N#Cc1ccc(NC(=O)CSc2nnnn2-c2ccccc2)cc1,-3,nt,2.7,nt
COc1ccc(S(=O)(=O)Nc2ccc3c(c2)CC(=O)N([C@H](C)CO)C[C@@H](C)[C@H](CN(C)Cc2ccc(-c4ccccc4)cc2)O3)cc1,-1,-7,-3.4,-0.24
COC(=O)c1ccc(Cl)c(NC(=O)CN(c2ccccc2Br)S(C)(=O)=O)c1,8,nt,1.1,nt
C[C@@H]1CN([C@@H](C)CO)C(=O)c2cc(NS(C)(=O)=O)ccc2O[C@H]1CN(C)Cc1ccccc1,5,-28,0.1,0.49
Cc1ccc(S(=O)(=O)Nc2ccc3c(c2)C(=O)N([C@H](C)CO)C[C@H](C)[C@H](CN(C)S(=O)(=O)c2cccs2)O3)cc1,-16,nt,-2.1,0.17
C[C@H](CO)N1C[C@H](C)[C@@H](CN(C)Cc2ccccc2)Oc2ccc(NS(=O)(=O)c3cn(C)cn3)cc2C1=O,10,-4,0.2,-0.17
COc1ccc(NC(=O)CSc2ncnc3sc4c(c23)CCC(C)C4)c([N+](=O)[O-])c1 (stereo unspecified),-14,nt,-0.2,nt
Cc1ccc(OC(C)(C)C(=O)Nc2ccc(Oc3ccc(F)cc3F)nc2)c2c1CCC2,-14,7,-0.1,-0.031
Cc1cc(C)cc(NC(=O)CC2NCCNC2=O)c1 (stereo unspecified),9,nt,2.6,nt
CC(CC(=O)O)CC(=O)Nc1ccc(C(=O)O)cc1 (stereo unspecified),-3,nt,0.4,nt

# A portion of the library (hit frequency here may not be typical).
